LANA-H2B inh: blockers of LANA interaction with H2A/H2B – biochemical, FP readout, HTS, primary screen. AID 2629, 2010. hit rate 0.6% among 320,000. Protein LANA1 (Human herpesvirus 8 type P (isolate GK18)), Q9QR71. inhibition, % (test concentration not listed). cell-free LANA-H2A/H2B peptide, fluorescence polarization; in the data active = inhibition mostly above about 10%, no sharp cut-off; inactive = mostly below about 6.7%;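 note: stock transfer was 7.5 nL into about 10 µL; 0% = median of vehicle wells and 100% = median of positive control wells; one replicate is shown; the record names a cut of 25% in any replicate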
Bfl-1 A1 inh: caspase 3/7 activation in MEF A1-2A-BIM cells, primary screen, A1 inhibitor project, cell-based, luminescence, HTS. Caspase-Glo 3/7 luminescence, 3 h; percent of clofoctol response, vehicle zero. caspase activation, % (test concentration not listed). hit rate 0.066% among 330,000. AID 2462, 2010;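 active = over half of replicate activation scores above 10%, or exactly half above 10 with the replicate mean above 10; inconclusive = replicate mean below 10 yet half the replicates above 10; inactive = over half of replicates below 10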;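 note: wells of about 30 µL received 50 nL stock; many hits fall short of the cut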
HNF4A DNA FP: change in binding of human HNF4A to DNA, primary screen, biochemical, fluorescence polarization, FITC-DNA; AID 1224865, 2016; Hepatocyte nuclear factor 4-alpha (Homo sapiens), P41235; hit rate 0.3% among 360,000; 1 h; activity change, % at 10 µM; in the data active = activity change above about 30%, passing the limit was not always enough;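 note: controls were the assay level and a saturating level of protein; the project sought stronger binding though the title names inhibitors; some compounds called inactive have numbers as strong as hits; positive values seem to mean higher polarization but the record does not say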
Target sequence (P41235 whole entry, looked up): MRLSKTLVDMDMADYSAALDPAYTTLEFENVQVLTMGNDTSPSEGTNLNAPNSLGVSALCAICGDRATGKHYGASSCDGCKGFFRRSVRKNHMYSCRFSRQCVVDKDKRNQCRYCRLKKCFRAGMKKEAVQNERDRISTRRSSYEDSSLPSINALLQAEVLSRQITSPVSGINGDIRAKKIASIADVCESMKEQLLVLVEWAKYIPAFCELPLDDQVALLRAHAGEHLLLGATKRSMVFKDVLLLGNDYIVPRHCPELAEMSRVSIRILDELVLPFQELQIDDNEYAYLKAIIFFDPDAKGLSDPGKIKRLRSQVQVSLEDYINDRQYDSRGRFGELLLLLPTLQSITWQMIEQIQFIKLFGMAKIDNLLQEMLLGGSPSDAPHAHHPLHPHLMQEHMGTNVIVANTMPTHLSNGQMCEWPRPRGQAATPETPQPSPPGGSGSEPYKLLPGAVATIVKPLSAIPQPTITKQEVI
Beta2AR agonist: beta2AR agonists driving receptor internalization, primary screen, cell-based, FAP fluorogen, flow cytometry; Beta-2 adrenergic receptor (Homo sapiens), P07550; Am2.2-beta2AR cells; reference of the scale not given here; response, % (concentration not given with the values); hit rate 0.43% among 340,000; AID 504454, 2011;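 active = response above a set limit, near 3 SD of response in nonfluorescent compounds, cut at about 42% in these data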;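 note: stock transfer was 100 nL into about 11 µL; a reference agonist was the positive control; negative values mostly stem from fluorescent compounds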
Target sequence (P07550 whole entry, looked up): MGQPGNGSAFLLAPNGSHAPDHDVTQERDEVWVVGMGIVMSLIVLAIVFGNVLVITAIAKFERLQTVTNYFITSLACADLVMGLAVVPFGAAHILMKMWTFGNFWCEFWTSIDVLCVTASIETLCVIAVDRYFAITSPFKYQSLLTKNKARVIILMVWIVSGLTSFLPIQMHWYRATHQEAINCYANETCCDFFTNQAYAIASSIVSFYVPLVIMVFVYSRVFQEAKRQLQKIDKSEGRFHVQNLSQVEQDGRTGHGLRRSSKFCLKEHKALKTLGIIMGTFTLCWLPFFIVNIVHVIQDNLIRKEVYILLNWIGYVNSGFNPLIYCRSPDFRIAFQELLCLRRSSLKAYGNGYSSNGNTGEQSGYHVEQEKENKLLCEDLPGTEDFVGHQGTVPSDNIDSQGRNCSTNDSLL
UCH37 inh: inhibitors of human UCH37 deubiquitinase, primary screen, biochemical, Ub-AMC cleavage, fluorescence; Ubiquitin carboxyl-terminal hydrolase isozyme L5 (Homo sapiens), Q9Y5K5; purified proteasome/UCH37; inhibition, % (concentration not given with the values); hit rate 0.33% among 330,000;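 active = mean of two replicates above 20%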;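 note: 0% = compound-free wells with enzyme and 100% = wells lacking proteasome; stock transfer was 100 nL into about 20 µL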
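Schedule: 30 min plus 25 min, room temperature / Material: human UCH37 within purified proteasomes / Technique: AMC fluorescence intensity at 355/460 nm / Buffer or medium: pH 7.4 Tris-HCl (50 mM) with ovalbumin, ATP-MgCl2, DTT / Controls: wells without proteasome as full block, compound-free enzyme plus substrate as uninhibited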
E coli growth: E. coli growth inhibition, primary screen, OD600; Escherichia coli growth, 23 h; stronger effect = lower value; OD600 absorbance (concentration not given with the values); hit rate 0.21% among 330,000;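 active = OD600 absorbance below the run mean of sample wells minus 3.6 SD, in any replicate, cut at about 0.56 in these data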;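 note: stock transfer was 300 nL into about 60 µL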
Vif TR-FRET: inhibitors of Vif binding to APOBEC3G peptide, primary screen, biochemical, TR-FRET, GST-Vif 1-94, biotin-A3G peptide, dose response retest (AID 1117319); Virion infectivity factor (Human immunodeficiency virus type 1 group M subtype B (isolate …; TR-FRET GST-Vif / biotin-A3G peptide binding; higher % means a stronger effect; test concentration not given here; strong numbers were not always called active; inhibition, %, or IC50 in µM where a hit was titrated; hit rate 0.57% among 260,000;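 active = above the screen mean plus three standard deviations and confirmed in dose response; inconclusive = results disagree or hit not tested in dose response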;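 note: Vif residues 1-94 fused to GST binding biotinylated APOBEC3G peptide 110-148; 0% = full assay without inhibitor and 100% = GST in place of GST-Vif; retest series ran down from 100 µM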
Numbers without * were called inactive; i = inactive; ? = inconclusive; · = no result given; & = joins results of further samples.

SMILES	LANA-H2B inh	Bfl-1 A1 inh	HNF4A DNA FP	Beta2AR agonist	UCH37 inh	E coli growth	Vif TR-FRET
Cc1ccccc1N=Nc1c(C)[nH]n(C(N)=S)c1=O	-0.6	-5.5	2.0	5	4.2	0.69	-4%
O=C1NC2=C(C(=O)CCC2)C(c2ccccc2Cl)N1 (stereo unspecified)	-0.9	0.2	3.3	0	2.6	0.66	·
C/C(N)=C(/C#N)C(=O)COC(=O)COc1ccc(Cl)cc1	4.8	-1.5	2.3&-2.3	-2&-6	1.6&2.6	0.68&0.66	1%&25%
O=C(COC(=O)c1ccc(S(=O)(=O)NCc2ccco2)cc1)Nc1ncc(Cl)cc1Cl	5.2	-0.4	-2.9	-2	1.0	0.69	16%
CCOC(=O)CNC(=O)Cn1c(C)cc2ccccc2c1=O	4.6	1.7	3.0	1	-7.4	0.73	31%
Cc1ccc(N2C(=O)C3C4C=CC(CC4)C3C2=O)cc1[N+](=O)[O-] (stereo unspecified)	1.7	0.8	3.0	0	1.3	0.68	·
Cc1cc(Sc2nnc(/N=C/N(C)C)s2)c2ccccc2n1	-9.3	2.8	5.1	2	·	·	0%
CCN1CCN(C(=S)NCCOC)CC1	-1.2	1.7	-2.0	4	1.6	0.7	2%
COC(=O)[C@@H]1C[C@@]2(O)[C@H](O)[C@H](O)[C@H](O)C[C@H]2N1Cc1ccc(C(F)(F)F)cc1	4.9	-0.3	-2.2	-3	2.0	·	·
C=CCn1c(COc2ccc(CC)cc2)nnc1SC/C(O)=C(\C#N)c1nc2ccccc2[nH]1	2.9	0.1	7.9	-7	·	·	1%
CCN(C(=O)Cn1c(=O)n2nc(CCn3nc(C)cc3C)nc2c2ccccc21)c1cccc(C)c1	4.2	1.0	0.3	-3	3.4	0.69	4%
CCn1cc(C(=O)OCC(=O)Nc2ccccc2OC(F)F)c(=O)c2ccc(C)nc21	0.8	-0.5	-4.4	1	1.4	0.61	-1%
COc1ccc(/C=N/NC(=O)Cc2cc(OC)c(OC)cc2[N+](=O)[O-])cc1	-0.3	0.4	0.6	8	·	·	·
COc1ccc(C=NCC2COc3ccccc3O2)cc1OC (stereo unspecified)	0.8	-0.1	0.5	-2	-0.1	0.68	-3%
O=C(NCc1ccc(F)cc1)c1ccc(NC(=O)C2CCCO2)cc1 (stereo unspecified)	0.6	-0.5	0.7	-2	0.8	0.65	·
CCCCC(=O)Nc1cc(Cl)ccc1C(=O)O	0.5	-0.6	3.8	1	0.2	0.65	8%
CCOC(=O)CC1(C)OCC(C[N+]2(C)CCCCC2)O1 (stereo unspecified)	1.1	0.6	-0.6	-2	4.3	0.65	·
C=CCNC(=S)NNC(=O)CCC(O)CCCCC (stereo unspecified)	1.8	0.6	0.0	-4	3.6	0.7	5%
O=C1CS(=O)(=O)N(Cc2cccc(F)c2)c2ccc(Br)cc21	-16	?	0.9	15	3.4	0.67	·
CCn1cc(C(=O)N[C@@H](CCSC)C(=O)NCCCn2ccnc2)c(=O)c2cc3c(cc21)OCO3	1.4	1.1	1.5	0	-2.8	0.65	·
O=C(/C=C1\SC(=O)N(CC(=O)Nc2ccc(F)cc2)C1=O)Nc1ccc(Cl)cc1	3.4	-1.1	1.2	14	5.3	0.69	1%
N#C/C(=C(/O)COC(=O)c1cccnc1Cl)c1nc2ccccc2[nH]1	-0.1	-0.4	14	3	3.0	0.66	8%
O=C(Nc1ccc(O)cc1)C1CCCO1 (stereo unspecified)	2.0	-0.5	2.6	-1	-0.4	0.71	3%
Cc1ccc(S(=O)(=O)Cn2nnnc2C(C(C)C)N2CCC(C(N)=O)CC2)cc1 (stereo unspecified)	4.5	0.4	3.1	3	0.8	0.67	·
NS(=O)(=O)c1ccc(CCNC(=O)CN2C(=O)COc3ccc(S(=O)(=O)N4CCCC4)cc32)cc1	-1.4	0.5	-2.0	-341	4.5	0.71	1%
CNNC(=S)Nc1cccc(C(F)(F)F)c1	-4.2	?	1.3	-2	2.0	0.6	0%
c1ccc(-c2csc(N3CCSCC3)n2)cc1	0.2	1.3	0.4	-10	2.6	0.63	16%
CCOCCCn1c(=NC(C)=O)c(C#N)cc2c(=O)n3cccc(C)c3nc21	10	0.1	-9.2	-6	i	0.67	?
O=C(CN(Cc1ccco1)C(=O)CNS(=O)(=O)c1ccc(Cl)cc1)NC1CCCCC1	-2.1	0.8	3.7	0	6.0	0.81	-4%
O=C(NCCc1ccccc1)C(=O)NCC1OCCCN1S(=O)(=O)c1cccs1 (stereo unspecified)	-0.4	0.4	0.4	10	-0.5	0.68	0%
Cc1sc2nc(CSCC(=O)Nc3ccc(Cl)cc3F)[nH]c(=O)c2c1C	·	·	18	-4	1.5	0.67	-1%
Cc1cc(C)n(CCNC(=O)c2cc(COc3ccc(F)cc3Cl)on2)n1	1.5	0.3	2.9	-6	0.8	0.7	-1%
Cc1ccc(-c2nn[nH]n2)cc1	-0.2	-2.1	-4.7	-4	1.0	0.66	14%
COc1ccc(CCNC(=O)C(=O)NCC2OCCN2S(=O)(=O)c2ccc(OC)c(OC)c2)cc1OC (stereo unspecified)	0.9	0.8	-1.2	3	5.9	0.8	·
CC(=O)N1CCN(c2ccc(NC(=S)NC(=O)/C=C/c3ccccc3)cc2)CC1	0.3	-0.4	·	·	0.4	·	·
Cc1ccc(F)cc1NC(=O)N1CCN(c2ccnc3cc(Cl)ccc23)CC1	-8.9	-0.1	0.0	0	0.8	0.66	-4%
COc1ccc(N2C3=C(C(=O)CC(C)(C)C3)C(c3cnn(C)c3)C3=C2CC(C)(C)CC3=O)cc1	-4.0	0.4	-3.0	-5	i	0.7	·
CCOc1ccc(NC(=O)CN2CCN(CC(=O)Nc3ccccc3OC)CC2)cc1	-0.7	-0.2	2.9	-4	-4.1	0.67	4%
Cc1noc(C)c1CSc1nnc2scc(-c3ccccc3)n12	-3.3	0.2	-1.9	·	3.8	0.68	-4%
CC(C)Cn1cnc2c(SCc3ccccc3F)nc(N)nc21	·	·	4.1	-12	0.5	0.65	-3%
CCOC(=O)c1cc(C(=O)NN)c(=O)[nH]c1C	-2.6	0.5	-0.9	5	6.4	0.68	-7%
Nc1ccnc(Oc2ccc(F)cc2)c1	0.6	-1.5	5.4	-3	2.2	0.65	·
CCCN(CC1CC1)C(=O)COC(=O)c1ccc(C)cc1O	0.3	-0.1	-0.4	-1	2.2	0.64	-3%
COc1cc(NC(=O)Nc2cccc(Cl)c2)c(OC)cc1NC(=O)CN1CCCCC1	-5.4	0.0	-0.5	-9	1.0	0.69	7%
Cc1cc(C)c(NC(=O)COc2nc3ccccc3nc2C)c(C)c1	0.2	0.9	-6.2	0	1.6	0.68	4%
COc1ccc(CN2CCN(S(=O)(=O)c3ccc(F)cc3)CC2)c(OC)c1OC	0.1	-0.1	-6.8	-3	4.6	0.68	4%
Cc1nc(-c2ccc(NC(=O)c3ccc(Br)o3)cc2)cs1	-5.3	-10	1.0	-5	-2.7	0.61	-12%
Cc1ccc(NC(=O)CCS(=O)(=O)c2ccc3c(c2)NC(=O)C(C)S3)cc1Cl (stereo unspecified)	-4.6	0.3	-6.8	6	2.1	0.67	·

5 entries from above, with two lines to a compound.
Values in the order: LANA-H2B inh | Bfl-1 A1 inh | HNF4A DNA FP | Beta2AR agonist | UCH37 inh | E coli growth | Vif TR-FRET
COc1cc(NC(=O)Nc2cccc(Cl)c2)c(OC)cc1NC(=O)CN1CCCCC1
 : -5.4 | 0.0 | -0.5 | -9 | 1.0 | 0.69 | 7%
Cc1cc(C)c(NC(=O)COc2nc3ccccc3nc2C)c(C)c1
 : 0.2 | 0.9 | -6.2 | 0 | 1.6 | 0.68 | 4%
COc1ccc(CN2CCN(S(=O)(=O)c3ccc(F)cc3)CC2)c(OC)c1OC
 : 0.1 | -0.1 | -6.8 | -3 | 4.6 | 0.68 | 4%
Cc1nc(-c2ccc(NC(=O)c3ccc(Br)o3)cc2)cs1
 : -5.3 | -10 | 1.0 | -5 | -2.7 | 0.61 | -12%
Cc1ccc(NC(=O)CCS(=O)(=O)c2ccc3c(c2)NC(=O)C(C)S3)cc1Cl (stereo unspecified)
 : -4.6 | 0.3 | -6.8 | 6 | 2.1 | 0.67 | ·

Later entries
SMILES	LANA-H2B inh	Bfl-1 A1 inh	HNF4A DNA FP	Beta2AR agonist	UCH37 inh	E coli growth	Vif TR-FRET
Cc1ccc(Cl)c(NC(=O)CN2CCNC(=O)C2)c1Cl	6.7	0.0	3.3	3	0.7	0.7	19%
O=C(NNC(=O)c1cccc(O)c1)Nc1ccc([N+](=O)[O-])cc1	3.5	-0.6	0.7	12	7.1	0.67	5%
CN(C)S(=O)(=O)Oc1ccc(C(=O)Nc2cccc(C(F)(F)F)c2)cc1	1.0	-1.0	-1.9	1	2.1	0.66	·
COc1ccc(NC(=O)CS(=O)(=O)c2ccc(C)cc2)c(OC)c1	-6.9	-0.4	-1.2	9	2.0	0.65	-1%
CS(=O)(=O)N1CCc2cc(C(=O)N3CCOCC3)ccc21	1.6	-0.3	2.8	-5	2.9	0.73	-3%
CC(C)c1nccn1S(=O)(=O)c1cc([N+](=O)[O-])ccc1Cl	-1.6	1.7	-0.3	-1	2.8	0.72	15%
COc1cccc(C(=O)Nc2nc(-c3ccc(S(=O)(=O)N4CCOCC4)cc3)cs2)c1	3.4	-0.1	-3.1	10	-3.9	0.69	-32%&1%
CCOc1ccc(C(=O)/C=C/Nc2ccc(S(=O)(=O)Nc3cc(C)nc(C)n3)cc2)cc1	0.0	0.3	·	·	3.9	0.67	·
Cc1ccc(-c2noc(CCC(=O)N3CCN(c4cc(C)ccc4C)CC3)n2)cc1	·	·	-0.9	4	1.4	0.72	6%
COC(=O)[C@H]1Cc2cnoc2C[C@]1(C)C(=O)O	1.5	-0.2	-0.9	3	1.1	0.67	22%
Cc1ccc(SCC(=O)c2c(C)nc3ccccn23)cc1	0.5	0.2	2.7	-14	3.6	0.61	-8%
NNC(=O)CSCc1ccc(Cl)cc1Cl	-1.0	-0.4	4.1	-7	-2.9	0.71	1%
O=C(CSc1ccc(-c2ccco2)nn1)Nc1cccc(F)c1	1.9	1.0	1.9	0	-1.9	0.67	12%
O=C(NCc1ccccc1F)C1CCCN1C(=O)NCc1ccccc1 (stereo unspecified)	-1.2	0.2	1.8	5	2.3	0.71	-2%
O=S(=O)(c1ccc(F)cc1)N1CC2CCCN2c2ccc(C(F)(F)F)cc21 (stereo unspecified)	-2.9	0.4	2.7	10	1.5	0.73	-1%
CCOc1ccc(N2CC(C(=O)NCCc3ccc(OC)c(OC)c3)CC2=O)cc1 (stereo unspecified)	·	·	-1.2	2	-2.5	0.72	4%
N#C/C(=C(/O)CN1CCOCC1)c1nc2ccccc2s1	-4.2	0.7	-2.8	-6	·	·	0%
COc1ccccc1NS(=O)(=O)c1ccc2c(c1)N(C(C)=O)CC(C)S2 (stereo unspecified)	2.5	0.0	-3.1	4	1.4	0.72	·
CC(=O)c1ccc(NC(=O)Cc2ccsc2)cc1	2.3	-0.2	0.0	-3	6.0	0.66	·
CCOc1ccc(/C=N/NC(=O)NC23CC4CC(CC(C4)C2)C3)cc1O	-2.2	1.4	1.0	6	·	·	·
O=C(CN(Cc1ccccc1)S(=O)(=O)c1ccc(F)cc1)NCc1ccncc1	-3.8	-0.2	-0.3	3	-0.5	0.65	·
